# Compound activity (PubChem)
# Sa ugtP lethal – growth inhibition of S. aureus ugtP deletion strain; 330,000 compounds, 0.54% hits; AID 1259309; S. aureus RN4220 ugtP deletion, OD600 growth, 16 h; some inactives read as strong as hits; growth inhibition, % (concentration not given with the values);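 active = z-score under -3 and OD600 up to 0.15 on both plates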;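 note: plate controls were untreated wells for no effect and antibiotic for full effect; wells of about 80 µL received 100 nL stock; the first replicate is given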
# BJeLR viability – kills HRASV12-expressing BJeLR cells | BJeLR (HRASV12) viability, CellTiter-Glo ATP luminescence, 48 h; reference of the scale not given here | inhibition, % (concentration not given with the values) | 300,000 compounds, 0.17% hits | AID 1554;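 active = replicate mean above 50%; inconclusive = above 50% but judged a plate artefact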;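 note: 50 nL library stock added to about 25 µL; numbers are from one replicate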
# PrP 5UTR inh – suppresses PrP 5' UTR mRNA reporter expression; inhibition, % (test concentration not listed); AID 488862; cell-based PrP 5' UTR mRNA reporter, plate reader; 340,000 compounds, 0.35% hits;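 active = every replicate at 50% or more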;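 note: 0 = median of the neutral control wells; tested in H4 reporter cells; numbers are from one replicate; inactives centre near -14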
# Bead autofluor – counter-screen for toxin protease inhibitors: compound fluorescence | compound autofluorescence counterscreen, microsphere flow cytometry; hits give high values | fluorescence intensity (concentration not given with the values) | 360,000 compounds, 3.1% hits | AID 624483;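 active = at least 3 SD above the mean of all compounds, about 16000 in these data; inconclusive = too few beads counted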;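 note: 100 nL of 1 mM stock went into each well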
# Mtb hypoxia rep – inhibitors of hypoxia-regulated fluorescent reporter in Mycobacterium tuberculosis; M. tuberculosis hypoxia-regulated fluorescent reporter, fluorescence; fluorescence inhibition, % (concentration not given with the values); 300,000 compounds, 0.1% hits; AID 1159583;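 active = 35 to 45% if threefold the growth effect, above 45% if 1.5-fold the growth effect; inactive = the rest, general growth blockers included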;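 note: wells of about 50 µL received 100 nL stock; 0% = vehicle wells and 100% = reference inhibitor wells; whole bacteria with a GFP reporter of the hypoxia response; strong numbers were not always called active; many hits fall short of the cut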
# Sa RN4220 lethal – kills Staphylococcus aureus RN4220 | S. aureus RN4220 growth, OD600, 16 h | inhibition, % (no concentration beside the values) | 330,000 compounds, 0.33% hits | AID 1259311;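 active = z-score of -3 or lower and OD600 up to 0.18 on both plates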;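 note: plate controls were untreated cells for no effect and reference antibiotic for full effect; stock transfer was 100 nL into about 80 µL; one replicate is shown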
# Mtb hypoxia rep growth – second read-out of Mtb hypoxia rep, no call of its own (marks repeat the call); growth inhibition, %; measured here: M. tuberculosis growth (absorbance);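 0% = vehicle and 100% = reference antibiotic; read after six days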
# The depositor's hits bear a star; ? = inconclusive; · = no result given.
SMILES,Sa ugtP lethal,BJeLR viability,PrP 5UTR inh,Bead autofluor,Mtb hypoxia rep,Mtb hypoxia rep growth,Sa RN4220 lethal
O=C(CN(CCN1CCOCC1)C(=O)Cn1nnc(-c2ccc(F)cc2)n1)NC1CCCCC1,-4,-2,-21,9649,-5,10,0.4
Cc1nc2nc(C)c(NS(=O)(=O)c3ccc4c(c3)CCCC4)c(=O)n2[nH]1,6,-2,7,3358,8,11,5.5
Cc1ccc(-c2[nH]ncc2C=Nn2c(COc3ccccc3)nc3ccccc3c2=O)cc1,-4,·,·,·,14,5,6.1
CCOC(=O)c1[nH]c2ccc(OC)cc2c1NS(=O)(=O)c1ccc(OC)cc1OC,-2,3,-23,8017,6,12,5.1
O=C(N/N=C/c1c(O)n(-c2ccccc2)c(=O)[nH]c1=O)c1ccncc1,3,5,-38,10519,11,5,1.7
O=C(COC(=O)c1ccccc1NC(=O)c1ccccc1)c1cccc([N+](=O)[O-])c1,-8,1,-47,2518,12,11,-2.7
CCOc1ccc(S(=O)(=O)Nc2cc(Sc3ncn[nH]3)c3oc(=O)sc3c2)cc1,1,5,·,·,·,·,13
CCn1c2c(c3cc(OCC(C)C)ccc31)CCCC2=O,82,-10,-31,7181,-1,3,-1.9
COCCNC(=O)C1CC2Cn3c(nc4ccccc43)C2N1C (stereo not drawn),-2,-1,-20,3803,-1,4,0.7
CC(Sc1nnc(-c2ccccc2)c(-c2ccccc2)n1)C(=O)NCC1CCCO1 (stereo not drawn),8,·,-7,2994,8,8,5.2
CC(=O)Nc1ccc(N=Cc2c(O)n(Cc3ccco3)c(=O)[nH]c2=O)cc1,8,-12,-2,?,0,7,3.4
CC1CCCCC1NC(=O)CN1C(=O)CSc2cc(S(=O)(=O)N3CCCCCC3)ccc21 (stereo not drawn),-5,-2,8,2117,9,3,1.7
O=C(COC(=O)C1COc2ccccc2O1)NC(=O)NC1CCCCC1 (stereo not drawn),-2,1,-31,·,16,9,3.3
CN(c1ccc(O)cc1)c1nc(O)c(C2=c3ccccc3=NC2=O)s1,31,-13,-44,5904,2,13,46
Cc1ccc(C(=O)CN(CCCC(N)=O)S(=O)(=O)c2ccc([N+](=O)[O-])cc2)cc1,-1,·,-22,4473,2,8,2.0

# Compound profiles, from the list above. Values in the order: Sa ugtP lethal, BJeLR viability, PrP 5UTR inh, Bead autofluor, Mtb hypoxia rep, Mtb hypoxia rep growth, Sa RN4220 lethal
# `O=C(CN(CCN1CCOCC1)C(=O)Cn1nnc(-c2ccc(F)cc2)n1)NC1CCCCC1` reads -4, -2, -21, 9649, -5, 10, 0.4
# `O=C(COC(=O)C1COc2ccccc2O1)NC(=O)NC1CCCCC1` (stereo not drawn) reads -2, 1, -31, ·, 16, 9, 3.3
# `Cc1ccc(C(=O)CN(CCCC(N)=O)S(=O)(=O)c2ccc([N+](=O)[O-])cc2)cc1` reads -1, ·, -22, 4473, 2, 8, 2.0
# `CC1CCCCC1NC(=O)CN1C(=O)CSc2cc(S(=O)(=O)N3CCCCCC3)ccc21` (stereo not drawn) reads -5, -2, 8, 2117, 9, 3, 1.7
# `O=C(N/N=C/c1c(O)n(-c2ccccc2)c(=O)[nH]c1=O)c1ccncc1` reads 3, 5, -38, 10519, 11, 5, 1.7

# Other results follow:
SMILES,Sa ugtP lethal,BJeLR viability,PrP 5UTR inh,Bead autofluor,Mtb hypoxia rep,Mtb hypoxia rep growth,Sa RN4220 lethal
COC(=O)CSc1ccc(S(=O)(=O)N2CCOCC2)cc1[N+](=O)[O-],3,4,-11,2502,0,7,2.4
CC(CCOS(N)(=O)=O)c1ccccc1 (stereo not drawn),·,-14,-25,3143,·,·,·
COc1cc(NC(C)=O)c2ncccc2c1[N+](=O)[O-],20,3,-3,2532,8,4,4.9
CC1CN(C(C)CO)C(=O)c2cc(NC(=O)Cc3ccccc3)ccc2OC1CN(C)C(=O)Nc1ccc(C(F)(F)F)cc1 (stereo not drawn),-9,·,·,·,-2,12,-0.5
Cc1ccccc1C(=O)c1c[nH]c(C(N)=O)c1,3,7,49,2164,·,·,4.4
CCP(=O)(CC)C(C)(C)CP(=O)(c1ccccc1)c1ccccc1,1,4,-3,11603,-1,-3,0.1
O=c1c2sccc2[nH]c(=S)n1-c1ccccc1,3,1,-12,3348,7,-2,2.2
Cc1ccc(C(=O)N2CCN(c3ccc(NC(=O)c4ccc5c(c4)OCCO5)cc3)CC2)cc1,-3,12,10,5686,1,6,2.0
CNc1nc2cccnc2s1,10,-5,-20,4826,6,2,1.8
CC1CC2(C)CC(C)C1(COC(=O)Nc1ccccc1)CO2 (stereo not drawn),-4,-4,-14,4496,7,4,7.0
CC(Sc1nnnn1C)C(=O)Nc1ccc(Oc2ccccc2)cc1 (stereo not drawn),6,-3,-12,3409,-2,4,5.3
C=CCn1c(SCC(=O)N2CCc3ccccc3C2)nc2sc(CC)cc2c1=O,1,10,-13,2214,-1,1,6.2
COc1ccccc1-c1c(C)nn2c(N)c(-c3ccc(Cl)cc3)cnc12,6,-12,-22,3979,-1,9,-0.4
O=C(COC(=O)CCC(=O)c1cccs1)NCc1cccs1,8,-15,-20,6117,-4,11,3.1
CCN(CC)P1(=O)OC(c2cc(OC)c(OC)c(OC)c2)=Nc2c1c(C)nn2-c1ccccc1 (stereo not drawn),-4,3,-27,6408,8,7,1.8
O=C(Oc1cccc(/C=N/NC(=O)c2ccccn2)c1)c1ccc([N+](=O)[O-])cc1,·,9,-61,5635,·,·,·
COCCCN(C(=O)CC1OC(=O)c2ccccc21)c1c(N)n(Cc2ccccc2)c(=O)[nH]c1=O (stereo not drawn),1,6,1,6207,1,7,1.4
COc1ccc(CC(=O)N/N=C/c2ccc(C)s2)cc1,·,-3,-15,5679,·,·,·
COc1ccc(C(=O)OCC(=O)N2CCCC2=O)c(OC)c1,-2,-3,-11,3587,13,12,6.5
CC1CCCCN1S(=O)(=O)c1ccc(S(=O)(=O)N2CCN(c3ccc(F)cc3)CC2)cc1 (stereo not drawn),1,-4,-7,7749,10,2,8.5
O=C(/C=C/c1ccco1)NC(=S)Nc1ccc(N2CCCC2)cc1,69,-2,-11,2007,16,25,5.1
Cc1cccnc1NC(=O)c1ccc(Br)o1,·,8,-20,4383,·,·,·
CCCCCOc1ccc(CSCCNC(=S)Nc2ccccc2)cc1,13,4,-22,2096,2,2,2.1
Cc1sc2ncnc(OCC(=O)N3CCN(S(=O)(=O)c4ccc(Cl)cc4)CC3)c2c1C,-4,-15,-57,4903,1,-3,0.7
O=C(COC(=O)CCc1ccccc1)NC1CCS(=O)(=O)C1 (stereo not drawn),5,-24,-17,?,1,-10,1.2
Cc1nc(=O)cc(-c2ccccc2)n1-c1ccccc1,5,0,-29,8603,6,-1,2.0
COc1ccc(N(CC(=O)N/N=C/c2ccc(F)cc2)S(=O)(=O)c2ccccc2)cc1,·,-4,8,3772,·,·,·
COc1cc2c(cc1OC)C(C(=O)Nc1cc(OC)c(OC)c(OC)c1)C(c1cccnc1)N(C)C2=O (stereo not drawn),6,7,-20,4400,6,3,8.4
CCN1CC2C3C(=O)N(C)C(=O)C3[C@](C)(C1=O)N2C(=O)c1ccc(Cl)cc1 (stereo partly drawn),-3,·,·,·,1,6,7.3
COC(=O)c1sccc1NC(=O)Nc1cccc(F)c1,0,-15,-2,1972,4,12,0.7
CN(C(=O)c1ccc(NC(=O)Cc2ccc([N+](=O)[O-])cc2)cc1)C1CC1,-7,·,-34,3425,10,17,4.1
Cc1cc(NC(=O)CCN2CCN(C/C=C/c3ccccc3)CC2)ccc1Br,4,-12,-22,4510,2,1,-9.5
O=C(Nc1ccccc1)N1CCN(c2nc(-c3ccccc3)ns2)CC1,2,0,-30,4548,11,9,3.0
CCc1nc2ccccc2n(CCOCCOCCn2c(=O)c(CC)nc3ccccc32)c1=O,-2,-6,-10,2369,·,·,0.9
O=C(Cc1c[nH]c2ccccc12)N/N=C/c1ccccc1O,·,8,-14,4287,·,·,·
C#CCOCCOCCOCCNc1nc(N2CCN(C(=O)C(CCCCN)n3cc(C(N)CC(C)C)nn3)CC2)nc(N2CCN(C(=O)C(C(C)CC)n3cc(C(N)CC(C)C)nn3)CC2)n1 (stereo not drawn),3,·,·,·,·,·,1.2
CC(C)C(=O)Nc1nc2c(ncn2C2CC(O)C(CO)O2)c(=O)[nH]1 (stereo not drawn),3,-5,-9,4440,-2,-3,4.6
COc1ccccc1N=Nc1nc(-c2ccccc2)c(-c2ccccc2)[nH]1,-2,-3,-11,1883,22,8,-4.5
CN(c1ccccc1)S(=O)(=O)c1ccc(C(=O)NCC2CCCO2)cc1 (stereo not drawn),5,1,-23,3004,16,8,3.6
Cn1c(=O)oc2cc(S(=O)(=O)N3CCC(N4CCCCC4)CC3)ccc21,3,·,-27,5267,1,4,3.2
CCC(CC)C(=O)Oc1c(C(=O)N(C)C)cccc1-c1ccccc1,-1,·,-10,4241,9,6,10
O=C(O)COc1ccccc1C=NNC(=O)CSc1nc2ccccc2n1Cc1ccc(Cl)cc1,-4,·,·,·,8,3,5.8
C/C(=N\NC(=S)Nc1cccc(C)c1)c1cccc(N)c1,·,-7,-34,8803,·,·,·
NC(=S)N/N=C/c1coc2ccc(Cl)cc2c1=O,·,-3,-7,4574,·,·,·
N#Cc1ccccc1S(=O)(=O)N1CCN(c2cnccn2)CC1,·,3,-22,5579,·,·,·
O=C(CCCNS(=O)(=O)c1cccs1)N1CCN(c2ccc(F)cc2)CC1,5,-7,-26,9489,6,-1,0.0
CC(C)c1ccc(/C=C2\C(=O)N(CCN3CCOCC3)C(=S)N2C)cc1,5,1,-26,4473,20,6,5.5
COC(=O)[C@@]1(Cc2ccccc2)[C@H]2C(=O)N(Cc3ccccc3)C(=O)[C@H]2[C@H]2CN=C(SC)N21,-4,·,-10,3434,-6,-5,2.5
O=C(NNC(=O)c1cccnc1)Nc1cccc(Cl)c1Cl,11,15,-20,9665,1,-3,10
COCCOc1ccc(C(F)(F)F)cc1NC(=O)c1ccc(C(F)(F)F)cc1,-2,-1,-1,1977,7,2,2.6
CCc1cccc(CC)c1NC(=O)/C(C#N)=C/c1ccccc1C(F)(F)F,-1,1,-15,2265,22,10,9.2
CN(C)c1nc(N)nc(CSc2nnnn2-c2ccc(C(=O)O)cc2)n1,2,4,-3,8108,5,5,1.6
Cc1occc1C(=O)Nc1cccc([N+](=O)[O-])c1,-2,-15,-12,2513,2,5,-0.6
CC1CCC(=O)N(CCC(Oc2ccccc2)c2ccccc2)CC1 (stereo not drawn),-6,·,·,·,13,9,2.2
O=C(CSc1ccccn1)Nc1nncs1,3,7,-29,5185,1,-6,-1.5
Fc1ccc(-c2nc3n(n2)Cc2ccccc2-3)cc1,-4,24,-65,2596,·,·,4.6
CSc1ccccc1NC(=O)CN(C)C(=O)C(C)SCc1nc2sc(C)c(C)c2c(=O)[nH]1 (stereo not drawn),3,·,-2,3396,-1,8,5.8
CCC(C(=O)N1CCN(c2ncccn2)CC1)c1ccccc1 (stereo not drawn),3,3,-17,3842,13,6,3.4
CCC(NC(=O)Nc1ncccc1C)(C(F)(F)F)C(F)(F)F,-2,3,-11,2918,15,4,-6.6
Cc1cc(C(=O)COc2ccc([N+](=O)[O-])cc2)c(C)n1C1CC1,9,0,-16,6058,13,8,5.0

# Next records:
SMILES,Sa ugtP lethal,BJeLR viability,PrP 5UTR inh,Bead autofluor,Mtb hypoxia rep,Mtb hypoxia rep growth,Sa RN4220 lethal
Cc1nc2ccccc2nc1OCC(=O)N1CCN(c2ccccc2)CC1,-2,2,11,3516,1,-1,-2.2
CCOC(=O)C1C(C(=O)OCC)C1(c1ccccc1)c1ccccc1 (stereo not drawn),7,-1,-4,2434,13,-2,7.7
Cc1ccc(C(=O)Nc2ccccc2C(=O)N2CCOCC2)cc1[N+](=O)[O-],-1,-11,-10,2485,17,3,6.1
COc1ccccc1CNC(=O)[C@@H]1CCCN1C(=O)[C@@H]1Cc2ccccc2CN1C(=O)OC(C)(C)C,-1,-1,0,5676,-1,9,-0.4
C[C@@H]1NC(=O)[C@H](CCC(=O)O)NC(=O)c2cc([N+](=O)[O-])cc(F)c2NCCC[C@@H](C(N)=O)NC1=O,·,0,-25,2909,·,·,·
O=C(COc1ccc(Cl)cc1Cl)NNC(=O)c1cccnc1,2,-6,-9,5447,4,1,6.2
COC(=O)c1[nH]nc2c1C(=O)N(Cc1ccccc1)C2=O,4,1,-20,4598,·,·,2.4
